ClpP mod: qHTS Assay for Activators of ClpP; ATP-dependent Clp protease proteolytic subunit (Bacillus subtilis (strain 168)), P80244; purified B. subtilis ClpP, FRET peptide cleavage, 20 min; Potency, µM (top dose mostly 57.5 µM), for inactives: top-dose activity change, negative = active; hit rate 1.9% among 340,000; AID 651965, 2013; active = well fitted falling curve with a large enough effect; inconclusive = small, poorly fitted or top-dose-only effect; inactive = no such curve, though single readings can be large or run the other way; further: potency means the concentration at half of the fitted maximal effect; the source files actives as falling curves though it sought activators and does not explain the sign; nearly all actives have a fitted effect of over 65% in size; many hits overshoot -100%
Target sequence (P80244 whole entry, looked up): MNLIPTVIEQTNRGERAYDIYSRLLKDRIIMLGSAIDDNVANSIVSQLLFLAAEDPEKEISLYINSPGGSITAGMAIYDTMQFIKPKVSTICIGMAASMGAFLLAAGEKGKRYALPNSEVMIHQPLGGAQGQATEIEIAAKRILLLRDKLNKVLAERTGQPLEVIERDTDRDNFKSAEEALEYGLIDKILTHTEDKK
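FRET quenching reversal measured ClpP activation: 10 microg/mL B. subtilis ClpP at pH 8 with the FRET-FV decapeptide, read at 430 nm after 320 nm excitation. The 20-min minus 0-min signal was scaled between DMSO/no-enzyme wells and ADEP (5.8 microM final).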
gsp agonist: qHTS for Agonist of gsp, the Etiologic Mutation Responsible for Fibrous Dysplasia/McCune-Albright Syndrome: qHTS | gsp mutant cells, cAMP HTRF, 30 min; control for the full effect not named in the record | Potency, µM (doses to about 76.9 µM), inactives show top-dose activation (cAMP increase), hits mostly activators | hit rate 0.13% among 340,000 | AID 624287, 2012; active = well fitted activation curve with a large enough effect; inconclusive = small, poorly fitted or top-dose-only effect, or another doubt; inactive = no such curve, though single readings can be large or run the other way; cell line not stated here;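 further: phosphodiesterase inhibitor Ro 20-1724 added with compounds to block cAMP breakdown; potency means the concentration at half of the fitted maximal effect; nearly all actives have a fitted effect of over 60% in size; about a fifth of the inactives were tested at one dose only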
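Cells stably selected in G418 were plated at 2000/well, grown 16-24 hr, then given compounds in DMSO with the PDE inhibitor […] (300 uM solution added) for 30 min at 37C; cAMP was read by HTRF.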
gsp antag: qHTS for Antagonists of gsp, the Etiologic Mutation Responsible for Fibrous Dysplasia/McCune-Albright Syndrome: qHTS; gsp-mutant cells, cAMP HTRF, 30 min; control for the full effect not named in the record; Potency, µM (top dose mostly 76.9 µM), without a hit: top-dose activity change, negative = inhibition, actives largely listed as inhibitors; hit rate 0.4% among 340,000; active = falling curve of any shape with a large fitted effect; inconclusive = falling curve, mostly with a smaller effect; inactive = flat or rising curve; cell line not stated here;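 further: intracellular cAMP measured with PDE inhibitor Ro 20-1724 present during compound exposure; potency means the concentration at half of the fitted maximal effect; on the % scale 0 is the no-effect control and ±100 the full control effect; nearly all actives have a fitted effect of over 65% in size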
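G418-selected cells were plated in DMEM/10% FBS for 16-24 h at 37C, then treated with compounds plus the PDE inhibitor […] (300 uM solution added) for 30 min at 37C. Intracellular cAMP was measured by HTRF after 30 min lysis at room temperature.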
Sfp inh: qHTS Assay for Inhibitors of Bacillus subtilis Sfp phosphopantetheinyl transferase (PPTase); Potency, µM, for the others: max response, negative = inhibition, hits mostly inhibitors; AID 1490, 2009; Biochemical Sfp PPTase activity, qHTS; hit rate 3.5% among 310,000; active means well fitted inhibition curve with a large enough effect; inconclusive means small, poorly fitted or top-dose-only effect, or another doubt; inactive means no such curve, though single readings can be large or run the other way;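 further: the enzyme is Sfp with the accession as filed and its product quenches rhodamine fluorescence; potency means the concentration at half of the fitted maximal effect; 0% = enzyme reaction without inhibitor and -100% = no enzyme wells; top concentration of the series not given in the record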
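Compounds were incubated with enzyme (final 15 nM) for 15 min at room temperature before substrate addition started the reaction. Fluorescence at 525 nm excitation, 598 nm emission was recorded immediately and after 30 minutes.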
TRPV1 PAM: HTS Assay for Compounds that Act as Potentiators of the Vanilloid Receptor 1. hit rate 0.02% among 320,000. potentiation, % at 8.33 µM. AID 540277, 2011. TRPV1-expressing cells, Fluo-8 calcium influx, capsaicin EC20 potentiation; host cell line not named in the record; control for the full effect not named in the record; active means potentiation above 80%; inconclusive means 30% to 80%; inactive means below 30%; further: 0% is about no effect
Target sequence (Q8NER1 whole entry, looked up): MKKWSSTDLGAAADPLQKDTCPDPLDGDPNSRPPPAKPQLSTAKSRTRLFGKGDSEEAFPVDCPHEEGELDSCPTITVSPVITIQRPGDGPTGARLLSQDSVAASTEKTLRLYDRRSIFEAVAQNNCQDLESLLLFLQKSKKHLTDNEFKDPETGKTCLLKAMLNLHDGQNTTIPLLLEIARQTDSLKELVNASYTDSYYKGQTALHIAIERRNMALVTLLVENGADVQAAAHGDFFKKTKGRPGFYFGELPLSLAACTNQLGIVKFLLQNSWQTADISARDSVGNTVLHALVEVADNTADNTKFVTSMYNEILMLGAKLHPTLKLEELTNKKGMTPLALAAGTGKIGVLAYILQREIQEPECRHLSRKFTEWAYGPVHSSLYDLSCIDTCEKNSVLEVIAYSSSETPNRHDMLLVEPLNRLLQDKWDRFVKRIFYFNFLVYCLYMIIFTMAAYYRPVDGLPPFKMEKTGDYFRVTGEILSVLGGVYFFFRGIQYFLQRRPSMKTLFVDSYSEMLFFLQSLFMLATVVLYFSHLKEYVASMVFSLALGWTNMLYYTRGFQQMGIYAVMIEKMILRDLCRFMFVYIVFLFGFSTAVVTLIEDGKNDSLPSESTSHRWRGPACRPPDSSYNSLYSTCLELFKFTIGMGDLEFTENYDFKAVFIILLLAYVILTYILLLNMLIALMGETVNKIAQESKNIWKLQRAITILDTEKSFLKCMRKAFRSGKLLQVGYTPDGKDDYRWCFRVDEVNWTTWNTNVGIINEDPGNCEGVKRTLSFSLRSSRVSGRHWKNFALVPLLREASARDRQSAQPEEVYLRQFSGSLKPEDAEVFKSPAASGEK
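Cells expressing TRPV1 were dye-loaded with Fluo-8 and read kinetically: 10 s baseline, 3 min after compound (agonist portion), then 2 min after EC20 capsaicin (allosteric enhancer portion). Calcium-bound dye fluorescence at 480/520 nm.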
Menin MLL FP FL: qHTS Assay for Inhibitors Targeting the Menin-MLL Interaction in MLL Related Leukemias: Competition With Fluorescein Labeled MLL-derived Peptide; 290,000 tested, under 10 active; AID 1766, 2009; Fluorescence polarization, fluorescein-MLL peptide displacement from menin; FP activity change, % at 61.4 µM; inconclusive = falling polarisation curve, or a change in total fluorescence; inactive = total fluorescence flat and polarisation flat or rising; no compound was filed as active; the % refers to the polarisation; negative = inhibition;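 further: % of control where 0% means no effect; inhibitors lower the polarisation; unlabelled MLL peptide was the positive control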
CtBP-E1A blk: qHTS Assay for Inhibitors of the CtBP/E1A Interaction; AID 651724, 2012; activity change, % (no concentration beside the values); hit rate 0.49% among 340,000; AlphaScreen GST-E1A/His-CtBP binding, 1536-well; hits give low values; control for the full effect not named in the record; CtBP / adenovirus E1A interaction (AlphaScreen); in the data active means activity change below about -65%; inconclusive means about -30% to -65%; inactive means above about -30%; further: on the % scale 0 is the no-effect control and ±100 the full control effect; compound concentration not given in the record
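Homogeneous bead-based format: GST-tagged E1A captured on glutathione donor beads, His-tagged CtBP on nickel acceptor beads; compounds precede bead addition by 2 h at 37 °C.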
* marks the source's active call; other numbers are inactive results; ? = inconclusive; . = no result given; & = joins results of further samples; [ ] = dose if it differs, or a comment. Hits appear at their usual frequency; overall some 5.3% were active at least once.

SMILES	ClpP mod	gsp agonist	gsp antag	Sfp inh	TRPV1 PAM	Menin MLL FP FL	CtBP-E1A blk
O=C(c1cccc(N2CCCC2=O)c1)N1CCN(c2cccc(Cl)c2)CC1	0.2%	-0.5%	11.7%	-1.3%	9.3	.	.
Cc1csc2c(=O)n(CCO)c(=O)[nH]c12	.	2.7%	6.2%	22.1%	4.8	-1.1	8.4
Cc1nn(-c2ccccc2)c(C)c1NC(=O)COC(=O)c1cc(Cl)ccc1O	6.8%	14.0%	-18.7%	.	?	.	7.8
CC1CCCCC1NC(=O)C1CCC(CNS(=O)(=O)c2cccc3cccnc23)CC1 (stereo not given)	-1.2%	24.2%	10.1%	8.1%	7.0	.	.
O=C1NC(=O)/C(=C/c2ccccc2Cl)N1	.	-26.0%	7.0%	-5.1%	-8.8	2.0	-0.1
CCCCn1c(-c2nn(C)c(C)c2Cl)n[nH]c1=S	-1.8%	?	-6.3%	7.5%	-20.5	2.5	0.7
COc1ccc(/C(N)=N/OC(=O)Cc2ccc(OC)c(OC)c2)cc1	0.5%	-14.9%	-25.4%	?	1.9	2.2	10.4
O=C(Cn1cnc2ccccc21)N/N=C/c1ccco1	-0.9%	-6.7%	8.3%	15.1%	-3.9	2.9	-18.3
Nc1nonc1-c1nc2ccccc2n1CC(=O)N1CCN(c2ccc(F)cc2)CC1	-4.0%	-22.3%	-4.7%	0.3%	-18.0	7.8	-10.1
CCCCN(C(=O)Cc1cccs1)c1nnc(-c2cccnc2)s1	-5.1%	7.1%	-4.4%	-11.1%	6.5	-0.3	-3.2
Cc1ccccc1NC(=O)C1C2CC/C=C\CCC21 (stereo not given)	1.8%	29.3%	1.4%	-4.0%	1.4	6.3	-3.1
Cc1ccccc1NC(=O)Cc1nc(COC(=O)CSc2ccc(F)cc2)cs1	1.3%	-0.3%	.	.	.	.	3.5
COc1ccc(N2C(=O)C3CCCN3C2c2cccc(F)c2)cc1Cl (stereo not given)	-2.0%	5.1%	-8.8%	6.7%	-2.1	-0.5	-1.7
CC1Cc2ccccc2N1C(=O)COC(=O)/C=C/c1ccc(F)cc1 (stereo not given)	0.8%	0.3%	3.4%	.	23.9	.	.
CCC(C)NC(=O)C1c2ccccc2C(=O)N(c2ccc(OC)cc2)C1c1ccc(OC)cc1 (stereo not given)	0.8%	-15.5%	1.1%	19.3%	-4.7	0.7	1.6
Cc1ccc2c(c1)-c1c(ssc1=S)C(C)(C)N2C(=O)CN1C(=O)c2ccccc2C1=O	0.6%	23.1%	-8.0%	5.1%	21.0	6.3	-3.3
CCc1nnc(NC(=O)C2CCN(c3cnccn3)CC2)s1	-8.6%	-6.8%	7.9%	-2.6%	1.3	4.2	0.3
CCCn1nnc2c(=O)oc3ccccc3c21	1.0%	-25.0%	17.8%	11.2%	2.2	4.2	12.8
CNC(=O)C(Sc1ccccc1)c1ccccc1 (stereo not given)	-1.0%	2.6%	1.9%	12.5%	-8.7	0.7	0.7
CCOC(=O)Cn1c(=O)c2c(nc(N3CCCCC3)n2C)n(C)c1=O	-0.2%	-55.1%[inhibitor]	-4.9%	17.7%	-2.7	-1.1	1.8
COc1ccc(C(=O)Nc2ccc(NC(=O)C3CC3)nc2)cc1	.	-8.2%[15.4 µM]	-31.5%	6.7%	-3.6	10.7	-0.4
O=S1(=O)[C@H]2C[C@H](CO)O[C@@]2(CO)CN1Cc1ccc(-c2cccc(Cl)c2)cc1	-1.0%	.	-3.5%	.	.	.	-2.0
CC(C)Cn1c(=O)c2sccc2n2c(CCCC(=O)N3CCC(N4CCCCC4)CC3)nnc12	-8.8%	19.9%	11.3%	15.5%	10.0	6.4	6.1
NS(=O)(=O)c1cccc(NC(=O)COC(=O)Cc2ccc(S(=O)(=O)N3CCCCC3)s2)c1	0.1%	0.7%	-9.8%	15.3%	10.2	15.6	7.9
Cc1csc(=O)n1CC(=O)OCC(=O)NCc1ccc(Cl)cc1Cl	-1.8%	0.3%	-11.8%	.	-6.5	.	10.1
C[C@@H]1CN(Cc2nc(-c3cnccn3)no2)C[C@H](C)O1	.	9.4%	4.9%	5.8%	7.7	-0.8	-17.0
O=C(NCc1ccc2c(c1)OCO2)C1CC(=O)N(CCc2ccc(F)cc2)C1 (stereo not given)	.	-2.5%[15.4 µM]	0.1%	20.9%	0.2	2.9	-1.2
COc1cccc(C2Nc3c(F)cc(Br)cc3C3C=CCC32)c1OC (stereo not given)	1.3%	-54.4%[inhibitor]	2.2%	-11.8%	16.4	5.7	8.3
COc1ccc(/C=C(/NC(=O)c2ccco2)C(=O)NCc2ccco2)cc1OC	-6.8%	-1.2%[15.4 µM]	7.9%	-5.0%	2.5	-5.3	-12.6
Cc1nc2scc(-c3cccs3)c2c(=O)n1N	-10.5%	14.3%[15.4 µM]	0.7%	3.1%	-10.0	4.6	-2.9
CC(C)NC(=O)NC(=O)COC(=O)c1c2c(nc3ccccc13)CCC2	.	-7.8%[15.4 µM]	-0.6%	6.9%	7.4	.	-2.6
COC(=O)c1ccccc1NC(=O)CSc1nc(-c2ccco2)cc(C(F)(F)F)n1	?	-31.8%[inhibitor]	15.6%	?	2.4	7.7	7.0
CC(=O)NC1=NC(=O)/C(=C/c2cc(C)n(-c3cccc(C(=O)O)c3)c2C)S1	.	8.0%[15.4 µM]	-29.8%	39.8µM*	6.3	?	0.0
CN1CCN(c2nc(-c3cccs3)cc(C(F)(F)F)n2)CC1	-13.8%	-1.1%	14.6%	9.2%	-5.7	1.8	-11.7
C[C@@H](C(=O)NCCCCCC(=O)O)n1nnc2ccccc2c1=O	.	15.0%[15.4 µM]	1.5%	14.9%	-3.4	2.2	0.0
CCOc1ccc(NC(=O)c2ccco2)cc1	0.7%	-39.3%[inhibitor]	-1.3%	9.0%	-14.6	-0.1	2.6
O=C1C2C3CCC(CC3)C2C(=O)N1c1ccccc1 (stereo not given)	.	-2.5%	12.9%	6.3%	9.4	?	4.0
O=C(CSC(=S)N1CCCC1)N(Cc1nnc(-c2ccccc2Cl)o1)C1CC1	1.4%	?	8.2%	.	1.2	.	-1.8
O=C(CN1CCN(Cc2ccccc2Cl)CC1)N/N=C/c1ccccn1	-3.4%	-123.1%[inhibitor]	8.7%	-3.5%	-3.5	-0.3	?
COCc1ccc(C(=O)NC2CCCc3c2cnn3-c2ccc(C)c(C)c2)o1 (stereo not given)	3.6%	-3.1%	?	0.5%	-4.4	0.9	-4.3
COc1ccc(C/C(N)=N/OC(=O)Cc2ccc(OC)c(OC)c2)cc1	-0.1%	-6.8%	3.2%	5.9%	-27.4	2.0	11.6
CCOC(=O)c1cccc(NC(=O)C2CCCN(S(=O)(=O)c3c(C)nn(C)c3C)C2)c1 (stereo not given)	-0.2%	-18.1%	-8.5%	5.5%	.	1.4	-2.6
COc1ccc(S(=O)(=O)Cc2ccc(C(=O)N3CCN(c4ccccc4)CC3)o2)cc1	0.9%	-25.9%	6.3%	-22.5%	-5.5	14.5	0.0
CCOC(=O)C1=CN(C)C=C(C(=O)OCC)C1c1ccsc1	8.91µM*	-2.7%	-7.5%	9.1%	13.6	5.6	16.7
CSc1ccc(Cl)c(C(=O)OCC(=O)N2CCN(C(=O)c3ccco3)CC2)c1	-6.8%	18.1%	-3.8%	.	8.4	.	2.2
CC(C)(C)SCCNC(=O)CSc1ccccc1	-0.1%	1.3%	-11.1%	.	.	.	0.3
Nn1c(SCC(=O)N2CCN(S(=O)(=O)c3ccc(Cl)cc3)CC2)nnc1-c1cccs1	-8.0%	6.0%	?	17.1%	2.6	0.2	-0.6
Cc1ccccc1-c1nc2ccccc2c(=O)o1	-1.2%	9.7%	.	.	.	.	-17.1
CCCCCCSc1ccc([C@H]2N[C@@](Cc3ccccc3)(C(=O)OC)[C@H]3C(=O)N(C)C(=O)[C@@H]23)cc1	-13.8%	.	-13.5%	.	?	.	-9.3
CCOc1cc(/C=N/NS(=O)(=O)c2ccc(OC)cc2)ccc1OCCN1CCOCC1	0.2%	-4.8%[15.4 µM]	-17.9%	1.4%	-0.3	2.4	-1.2

Remaining list, next part:
SMILES	ClpP mod	gsp agonist	gsp antag	Sfp inh	TRPV1 PAM	Menin MLL FP FL	CtBP-E1A blk
CC1(C)CC(=O)C=C(C(=O)NC2CCCc3c2cnn3-c2cc(F)cc(F)c2)O1 (stereo not given)	0.1%	-19.0%[15.4 µM]	-10.4%	9.4%	-12.9	6.9	6.3
NS(=O)(=O)Cc1noc2ccccc12	1.6%&1.0%	.	-4.3%&-7.6%	-1.7%&15.0%&21.8%	4.8	0.3&-1.0&-15.6	5.7&3.8
CCN(CC)CCn1c(NC(=O)c2ccc(C(F)(F)F)cc2)nc2ccccc21	.	5.0%[15.4 µM]	.	-25.7%	-4.9	-3.5	4.1
CC(C)(C)c1cc[n+](C2=C([O-])c3ccccc3C(=O)/C2=N\S(=O)(=O)c2cccs2)cc1	-2.4%	-17.8%[15.4 µM]	-5.6%	-24.8%	3.7	0.1	-0.8
CCOC(=O)C1CCN(C(=O)C2(NC(=O)Nc3cccc(F)c3)CCCCC2)CC1	-0.6%	-24.6%[15.4 µM]	8.2%	-7.0%	0.7	-2.2	12.9
COc1c(C(=O)Nc2nccs2)ccc2ccccc12	-5.7%	-25.7%	-16.4%	3.3%	19.8	8.7	-3.2
Cc1ccc2cc(CN(CC3CCCO3)C(=O)C(C)C)c(=O)[nH]c2c1 (stereo not given)	?	2.8%	4.0%	17.3%	7.9	-1.6	6.2
O=C(N/N=C/c1cc(Cl)cc([N+](=O)[O-])c1O)c1cccc(S(=O)(=O)N2CCOCC2)c1	0.9%	-9.9%	-0.2%	.	0.6	.	-87.2*
CCOc1ccc(N2C(=O)CC(N(CCc3ccccc3)C(=O)/C=C/C(=O)O)C2=O)cc1 (stereo not given)	.	-0.1%[15.4 µM]	7.6%	16.9%	8.1	4.7	15.4
Cn1c(=O)c2c(ncn2CC(=O)N2CCN(c3ccc(F)cc3)CC2)n(C)c1=O	-0.4%	?	-6.0%	13.0%	1.1	-4.6	1.4
